From PubChem BioAssay
VDR inh – inhibitors of human vitamin D receptor; VDR-SRC2-3 peptide fluorescence polarization, 2 h; P11473; Potency, µM, for inactives: max response, negative = inhibition, hits mostly inhibitors; 400,000 tested, 0.93% active; active = well fitted inhibition curve with a large enough effect; inconclusive = small, poorly fitted or top-dose-only effect, or another doubt; inactive = no such curve, though single readings can be large or run the other way; also: series mostly up to about 120 µM
Target sequence (P11473 whole entry, looked up): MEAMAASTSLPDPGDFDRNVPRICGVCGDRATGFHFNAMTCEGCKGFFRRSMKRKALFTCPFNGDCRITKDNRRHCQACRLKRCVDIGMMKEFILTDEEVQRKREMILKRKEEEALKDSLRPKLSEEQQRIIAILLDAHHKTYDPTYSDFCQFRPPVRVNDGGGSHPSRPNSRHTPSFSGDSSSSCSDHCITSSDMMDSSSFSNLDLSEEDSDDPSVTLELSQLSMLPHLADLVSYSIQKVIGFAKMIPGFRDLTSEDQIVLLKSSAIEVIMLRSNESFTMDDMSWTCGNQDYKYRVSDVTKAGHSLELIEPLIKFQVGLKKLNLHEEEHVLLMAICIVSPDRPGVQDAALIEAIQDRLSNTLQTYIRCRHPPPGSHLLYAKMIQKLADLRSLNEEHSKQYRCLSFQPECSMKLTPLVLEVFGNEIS
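After 23 nl compound addition and a short centrifugation, plates sat for 2 hours at ambient temperature; polarization of fluorescence then indicated loss of VDR binding to peptide SRC2-3.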
* = called active by the depositor; ? = inconclusive; & = joins results of further samples. % is scaled to controls: 0 for no effect and ±100 for the full control effect; potency is read from the fitted curve at half-maximal effect.

VDR inh,SMILES
10.3%,Cc1ccc2oc(C(=O)Nc3nc(-c4ccc(F)cc4)ns3)c(C)c2c1
4.8%,CCC1CCC(C(=O)NNC(=O)c2cc(-c3ccco3)[nH]n2)CC1 (stereo not drawn)
8.4%,CCOC(=O)c1c(C)n(CCNC(C)=O)c2ccc(OC)cc12
-10.9%,COc1ccc(NC2=CC(c3ccc(F)cc3)N(c3ccc(OC)cc3)C2=O)cc1 (stereo not drawn)
-16.5%,Cc1cnc(C(=O)Oc2cccc(Cl)c2Cl)cn1
2.1%,NCCC[C@@H](CC(=O)N[C@@H]1CCCC[C@H]1C(=O)N[C@H](CC(=O)N[C@@H](CCC(=O)O)CC(=O)O)Cc1ccccc1)NC(=O)C[C@H](Cc1c[nH]c2ccccc12)NC(=O)[C@@H]1CCCC[C@H]1N
-4.2%,COc1ccc(/C=C(\NC(=O)c2ccco2)C(=O)NC(Cc2ccccc2)C(=O)O)cc1 (stereo not drawn)
-11.0%,COc1ccc(N2CC(C(=O)Nc3nnc(SCC(=O)N4CCCC4)s3)CC2=O)cc1 (stereo not drawn)
4.3%,O=C(/C=C/c1ccccc1[N+](=O)[O-])OCC(=O)N1CCCC1
-10.8%,CS(=O)(=O)NCCn1ccc2ccccc21
3.1%,CC[C@]12C(=O)N(C)C[C@H]([C@@H]3C(=O)N(C)C(=O)[C@@H]31)N2C(=O)c1ccccc1
3.0%,O=C1c2ccccc2S(=O)(=O)c2cc(N3CCN(C(=O)c4ccccc4)CC3)ccc21
-9.4%,Cc1cc(C)c(NC(=O)CSc2nc3ncc(Br)cc3[nH]2)c(Cl)c1
2.9%,COC(=O)c1ccc(S(=O)(=O)N2CCOCC2)o1
2.4%,Cc1ccc(NC(=O)/C(C#N)=C/c2ccc(C)s2)c(C)c1
-9.4%,CCOc1ccc(C(=O)OCc2cc(=O)n3nc(C4CCCCC4)sc3n2)cc1
-11.2%,CC(=O)Nc1nnc(COc2ccccc2)s1
9.2%,COc1ccc(C2=NN(CCC(=O)NCCc3ccccc3)C(=O)CC2)cc1
9.9%,CC(C(=O)NCc1ccc2c(c1)OCO2)N(c1ccccc1)S(C)(=O)=O (stereo not drawn)
12.2%,O=C(NCCc1ccccc1)c1ccc(Cl)c(S(=O)(=O)N2CCCC2)c1
4.2%,CN(C)c1ccc(C(C#N)c2ccccc2)nn1 (stereo not drawn)
11.9%,O=C(NCCc1ccccc1Cl)c1ccc(Cn2c(=O)c3cccn3c3cccnc32)cc1
11.8%,COCCNC(=O)C1=C(N)C(C(=O)Nc2ccc(C)c(S(=O)(=O)N3CCCCC3)c2)SC1=Nc1ccc(C)cc1C (stereo not drawn)
17.1%,Cc1cc(NC(=O)C(C)SCC(=O)N(C)CC(=O)Nc2ccccc2C(F)(F)F)no1 (stereo not drawn)
-0.1%,Cc1ccccc1OCC(=O)N1CCC(c2nc3ccccc3s2)CC1
0.3%,COc1cc(OC)cc(C(=O)NNC(=O)CN2C(=O)NC(C)(c3ccc(C)cc3)C2=O)c1 (stereo not drawn)
-13.5%,CC(C)c1cccc(C2=CC(=O)C[C@H](c3ccc4c(c3)OCO4)C2)c1
-6.8%,Clc1ccccc1CNc1nc2ccccc2n2cnnc12
-12.1%,Cc1ccsc1C(=O)Nc1ccc(O)c(-c2nc3ccccc3s2)c1
4.1%,Cc1ccc(NC(=O)c2sc3ncn(CC(=O)N4CCOCC4)c(=O)c3c2C)c(Br)c1
6.1%,CCOc1ccccc1OCCCC(=O)Nc1ccc(S(=O)(=O)Nc2cc(C)nc(C)n2)cc1
-5.5%,O=c1c2ccccc2ccc2ccccc12
-0.5%,CCCC(=O)NC(=S)Nc1ccc(C(C)=O)cc1
-5.6%,Cc1ccc(/C=N/Nc2ccccn2)s1
-10.1%,S=C(NCCc1ccccc1)Nc1ccc(Br)cn1
17.0%,O=C(CCS(=O)(=O)c1cccs1)NC1CCCCCC1

Arranged by SMILES length (smallest number first): some entries from above.
VDR inh,SMILES
-5.6%,Cc1ccc(/C=N/Nc2ccccn2)s1
-10.8%,CS(=O)(=O)NCCn1ccc2ccccc21
2.1%,NCCC[C@@H](CC(=O)N[C@@H]1CCCC[C@H]1C(=O)N[C@H](CC(=O)N[C@@H](CCC(=O)O)CC(=O)O)Cc1ccccc1)NC(=O)C[C@H](Cc1c[nH]c2ccccc12)NC(=O)[C@@H]1CCCC[C@H]1N

Carrying on:
VDR inh,SMILES
-2.4%,O=C(O)/C(=N/NC(=O)c1ccc(Cl)cc1)c1ccccc1
6.1%,Cc1ccc(NC(=O)CS(=O)CC(=O)NCCCc2ccccc2)cc1Cl (stereo not drawn)
7.3%,CC(=O)Nc1ccc(C)cc1-c1nc2ccccc2n(CC(=O)c2ccc(Cl)cc2)c1=O
-24.9%,COc1ccccc1C(=O)NC(CCSC)C(=O)OCC(=O)N1CCN(S(=O)(=O)c2ccc(C)cc2)CC1 (stereo not drawn)
-2.0%,Clc1ccc(-c2nnc(NC3=NCCCCC3)o2)cc1
-0.8%,CCNC(=O)Nc1cc(OC)c(OC)cc1C(=O)O
18.2%,OCCC1CN(Cc2cn[nH]c2C2CCCCC2)CCN1Cc1ccccc1 (stereo not drawn)
14.1%,CCOCCCNC(=S)N1CCC(C(=O)c2ccc3c(c2)OCCO3)CC1
-12.8%,CSc1ccc(S(=O)(=O)Nc2ccc(OCC(=O)N3CCOCC3)cc2)cc1
-28.6%,ONC(=Nc1ccccc1)c1ccccc1Cl
-2.2%,O=C(CCC(=O)c1cccs1)Nc1nnc(C2CC2)s1
-10.3%,CC(/C=C/c1ccco1)=N\NC(=O)c1cccc(Cl)c1
-11.9%,Cc1cccc2sc(N3CCN(C(=O)c4cccs4)CC3)nc12
7.8%,N#Cc1cc(-c2ccccc2)cnc1Sc1ccccc1
-6.8%,O=C(c1ccccc1)N1CCN(CC(O)COc2cccc3ccccc23)CC1 (stereo not drawn)
-20.9%,CCC(=O)c1cn(CCOc2ccccc2OC)c2ccccc12
18.5%,O=S(=O)(NCc1csc(-c2cccs2)n1)c1cccs1
-1.3%,Cc1ccc(N2CCN(c3nc4ccccc4c4nnc(C)n34)CC2)c(C)c1
-16.3%,CCOC(=O)CCNC(=O)N1CCCC(C(=O)c2cccc(OC(C)C)c2)C1 (stereo not drawn)
12.5%,Cc1ccc(NC(=O)c2ccc(F)c(S(=O)(=O)NCCc3ccccc3)c2)cc1F
1.9%,O=C(CSc1cccc2cccnc12)Nc1cc(C(=O)O)cc(C(=O)O)c1
7.5%,CCc1cccc(NC(=O)C2Cc3ccccc3N2C(=O)c2ccccc2)c1 (stereo not drawn)
-15.6%,N#Cc1ccc(NC(=O)Cn2cnc(S(=O)(=O)N3CCCC3)c2)cc1
-2.8%,O=C(CCC(=O)OCC(F)(F)C(F)F)Nc1ccccc1F
7.5%,O=C(CN1CCSCC1)c1c[nH]c2ccccc12
13.7%,COc1cccc(OC)c1C(=O)Nc1nnc(-c2cccs2)s1
8.5%,CC1=C(c2cccc(Cl)c2)S(=O)(=O)NC1=NCc1ccccc1C
10.3%,CC1CCC(C(=O)NC(C(=O)NCc2cccnc2)C(C)C)CC1 (stereo not drawn)
4.0%&1.4%,COc1cccc(N(Cc2nnc3n2CCCCC3)C(=O)Nc2ccccc2)c1
7.7%,CCCOc1c(Br)cc(C(N)=O)cc1OCC
0.5%,CCN(c1ccc(C)cc1)S(=O)(=O)c1nnc(NC(=O)c2cccs2)s1
4.4%,COc1ccc(N(CC(=O)N2CCC(Cc3ccccc3)CC2)S(C)(=O)=O)cc1
10.5%,CC1(C)Cc2noc(N)c2C(C)(C)N1O
-8.6%,O=Cc1ccc(O)cc1O
-14.0%,COc1ccccc1C(=O)NC(=S)Nc1ccc(NC(=O)c2cccs2)cc1
-11.1%,CCCn1c(NC(=O)CSCC(=O)Nc2cc(C)on2)nc2ccccc21
7.7%,Cc1ccc(OCCSc2nnc(C)c(=O)n2N)cc1
-14.4%,COc1cc2nc(C3CCC3)nc(N3CCN(c4ccccn4)CC3)c2cc1OC
-7.9%,COc1ccc(-c2cc3nc4n(c(=O)c3s2)CCC4)cc1
0.3%,N#Cc1c(-c2ccc(Cl)cc2)ccn2nc(CCC(=O)O)nc12
0.3%,CCC(=O)n1nc(-c2ccc(OC)cc2)nc1SC
4.8%,CC(C)(C)C(=O)NC1(C(F)(F)F)NC(=O)N(Cc2ccccc2)C1=O (stereo not drawn)
-2.9%,O=C(CC(Cc1ccccc1)C(=O)O)Nc1ccccc1 (stereo not drawn)
1.2%,CC(=O)Nc1ccc(NC(=O)c2ccccc2N(Cc2ccccc2)S(C)(=O)=O)cc1
18.2%,Cc1ccc(C2C(N)C(=O)N2c2ccc(C)cc2)cc1 (stereo not drawn)
-8.3%,COc1ccc(C(=O)NC(Nc2ccccc2)C(Cl)(Cl)Cl)cc1 (stereo not drawn)
15.6%,CSc1ccc(S(=O)(=O)NCC(=O)OCC(=O)N(C)C2CCCCC2)cc1[N+](=O)[O-]
-19.9%,O=C(NNc1nc(-c2ccccc2)cs1)c1ccccc1
6.8%,NCC(=O)N[C@@H](CCCN=C(N)N)C(=O)NCC(=O)N[C@@H](CC(=O)O)C(=O)N[C@@H](CO)C(=O)N1CCC[C@H]1C(=O)O
-6.8%,CCOCCCNC(=O)c1c(NC(=O)Cc2coc3c(C)c(C)ccc23)sc2c1CCC2
1.8%,O=C(Nc1nnc(-c2ccccc2)o1)Nc1ccccc1Cl
13.4%,CC1CCN(S(=O)(=O)c2ccc3c(c2)CCN3)CC1
79.4µM*,CC(SCc1cc(=O)n2c([nH]c3ccccc32)c1C#N)C(=O)O (stereo not drawn)
13.8%,CC(=O)c1sc(NC(=O)CS(=O)(=O)c2ccccc2)nc1C
-8.2%,CCOC(=O)N1CCN(C(=O)CCc2c(C)nc3c(c(C)nn3-c3ccc(C)c(C)c3)c2C)CC1
-3.9%,Cc1ccc(NC(=O)C2(c3cccs3)CCOCC2)cc1Cl
-0.1%,O=C(CSc1ncn[nH]1)Nc1ccc(S(=O)(=O)Nc2ncccn2)cc1
-12.4%,COc1ccc(N2CCN(C(=O)c3cc4cc(Cl)ccc4[nH]3)CC2)cc1
10.6%,Cc1ccc(-c2nnc(N3CCOCC3)c3ccccc23)cc1S(N)(=O)=O
-18.8%,Cc1noc(C(=O)NCc2ccc(F)cc2)c1Cl

More entries:
VDR inh,SMILES
-12.9%,O=C(COc1ccccc1Cl)N1CCc2ccccc2C1
-6.6%,O=S(=O)(Nc1ccc(S(=O)(=O)Nc2ccccc2)cc1)c1ccccc1
3.4%,COc1ccc(C(=O)c2nc3c(n2O)CCCC3)cc1OC
14.7%,O=C(COc1ccccc1)NNC(=S)NC(=O)c1ccccc1
9.8%,Cc1cc(-c2nnc(CCC(=O)N(C)Cc3ccsc3)o2)no1
?,COc1cc2c(cc1OC)C(SC)=NC1(CCCC1)C2
9.6%,CCN(CC)CCOC(c1ccccc1)c1ccc(C)cc1 (stereo not drawn)
1.2%,NC(=O)c1ccc[n+](CCC[n+]2cccc(C(N)=O)c2)c1
-23.3%,O=C(Nc1ccccc1C(=O)O)c1cccc(S(=O)(=O)Nc2ccc(Br)cc2)c1
-11.6%,O=C(COC(=O)c1cc(S(=O)(=O)N2CCCCC2)ccc1N1CCOCC1)c1ccccc1
-24.4%,N#CC1=C2Nc3ccccc3N2C(=O)NC1(c1ccccc1)C(F)(F)F (stereo not drawn)
0.5%,COC(=O)c1ccc(C2C(Oc3ccc(OC)cc3)C(=O)N2CCc2ccc(OC)c(OC)c2)cc1 (stereo not drawn)

An excerpt of these results, field by field.
NCC(=O)N[C@@H](CCCN=C(N)N)C(=O)NCC(=O)N[C@@H](CC(=O)O)C(=O)N[C@@H](CO)C(=O)N1CCC[C@H]1C(=O)O
  VDR inh: 6.8%

O=C(NCCc1ccccc1Cl)c1ccc(Cn2c(=O)c3cccn3c3cccnc32)cc1
  VDR inh: 11.9%

COc1ccc(N2CC(C(=O)Nc3nnc(SCC(=O)N4CCCC4)s3)CC2=O)cc1 (stereo not drawn)
  VDR inh: -11.0%

Cc1ccc(NC(=O)c2sc3ncn(CC(=O)N4CCOCC4)c(=O)c3c2C)c(Br)c1
  VDR inh: 4.1%

Next structures.
VDR inh,SMILES
1.8%,Cc1nc(SCC(=O)N2CC(=O)Nc3ccccc32)c2c(C)c(C)sc2n1
4.4%,CC(C(=O)NC1CCCC1)N(Cc1ccco1)C(=O)c1snc(C(=O)NC2CCCC2)c1N (stereo not drawn)
-13.2%,Cc1cccc(NC(=O)CSc2cc(C)c(C#N)c3nc4ccccc4n23)c1
-10.5%,Cc1ccc(S(=O)(=O)N(C)c2ccc(N)cc2)cc1
-2.0%,CC(C)(C)c1ccc(Cn2nnc3c(=O)[nH]c(C4CCCN(C(=O)Cc5cccs5)C4)nc32)cc1 (stereo not drawn)
-11.3%,Cc1ccc(S(=O)(=O)/N=C(/c2ccc(F)cc2)N2CCCC2)cc1
-7.7%,Cc1ccc(SCCC(=O)NC2CC2)cc1
1.4%,CCOC(=O)c1sc2nc(C(C)C)c3c(c2c1N)CC(C)(C)OC3
-5.8%,C=CCOc1c(Br)cc(CNc2ccc3[nH]c(=O)[nH]c3c2)cc1OCC
-11.1%,CCOc1ccc(C(=O)c2cn(CC(=O)Nc3ccc(F)cc3)c3cc4c(cc3c2=O)OCCO4)cc1
-14.5%,COc1cc(NC(=O)Cc2c(C(=O)O)c(C)cn2C)cc(OC)c1
-2.4%,CCCCN=CC1=C(O)C(C(=O)OC)C(C)(C)CC1=O (stereo not drawn)
3.3%,CC1=C(C(=O)Nc2ccc(F)cc2)C(c2cccc(C)c2)n2nc(CCCO)nc2N1 (stereo not drawn)

By substructure, those above containing a tert-butyl group (two)
VDR inh,SMILES
4.8%,CC(C)(C)C(=O)NC1(C(F)(F)F)NC(=O)N(Cc2ccccc2)C1=O (stereo not drawn)
-2.0%,CC(C)(C)c1ccc(Cn2nnc3c(=O)[nH]c(C4CCCN(C(=O)Cc5cccs5)C4)nc32)cc1 (stereo not drawn)

Ordered by value in VDR inh (rising): 3 from the list above.
VDR inh,SMILES
-11.1%,CCOc1ccc(C(=O)c2cn(CC(=O)Nc3ccc(F)cc3)c3cc4c(cc3c2=O)OCCO4)cc1
1.8%,Cc1nc(SCC(=O)N2CC(=O)Nc3ccccc32)c2c(C)c(C)sc2n1
3.3%,CC1=C(C(=O)Nc2ccc(F)cc2)C(c2cccc(C)c2)n2nc(CCCO)nc2N1 (stereo not drawn)

The list is partial, so the mix of outcomes need not match the whole.
